# GLA inh pH 4.5 = alpha-galactosidase A (human) inhibition, pH 4.5. P06280. purified enzyme, 4-MU-alpha-Gal fluorescence, pH 4.5. activity change, negative = inhibition, % at 105 µM. 230,000 tested, under 10 active. AID 1467; inconclusive = small, poorly fitted or top-dose-only inhibition, or a rising curve; inactive = flat fitted curve, though single readings scatter; no compound was filed as active;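 note: 0% = full activity with enzyme and -100% = basal without enzyme; dose as in the result columns while the protocol names 77 µM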
# Target sequence (P06280 whole entry, looked up): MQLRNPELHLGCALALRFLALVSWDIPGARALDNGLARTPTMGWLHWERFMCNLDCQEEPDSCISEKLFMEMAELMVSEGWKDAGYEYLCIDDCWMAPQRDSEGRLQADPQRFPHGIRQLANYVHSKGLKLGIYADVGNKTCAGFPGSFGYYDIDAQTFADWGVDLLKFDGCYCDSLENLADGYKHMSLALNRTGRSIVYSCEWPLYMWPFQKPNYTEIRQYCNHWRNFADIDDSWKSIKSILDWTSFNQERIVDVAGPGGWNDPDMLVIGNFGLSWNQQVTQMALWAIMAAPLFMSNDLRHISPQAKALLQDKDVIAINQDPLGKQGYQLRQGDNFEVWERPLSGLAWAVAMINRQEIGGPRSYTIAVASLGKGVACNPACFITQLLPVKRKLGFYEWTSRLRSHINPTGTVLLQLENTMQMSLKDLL
# miR-21 FLuc = raises the signal of a miR-21 reporter. HeLa miR-21 FLuc reporter, luciferase, 48 h. Potency, µM (doses to about 38.3 µM), inactives show top-dose reporter change, positive = more light. 340,000 tested, under 10 active. AID 2288; active = well fitted rising curve with a large enough effect; inconclusive = small, poorly fitted or top-dose-only effect; inactive = no such curve, though single readings can be large or run the other way;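 note: % of control where 0% means no effect; miR-21 action dims this reporter so a rising signal means less miR-21 action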
#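 Compounds were titrated across several concentrations (up to approximately 40 uM) and incubated 48 hours with HeLa miR-21-FLuc reporter cells (miR-21 target sequence downstream of FLuc, endogenous miR-21). Readout was firefly luciferase luminescence after lytic detection reagent.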
# Rango complex inh = Rango-importin beta binding inhibition; Potency, µM (top dose mostly 92.2 µM), for the others: at the top dose inhibition of complex formation; hit rate 0.031% among 340,000; AID 540263; Q14974; Rango CFP/YFP FRET sensor + importin beta, 45 min; active = rising FRET ratio curve, often small or poorly fitted; inconclusive = mostly compound fluorescence or quenching in the first reads; inactive = flat curves in all reads;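 note: potency is the fitted concentration of half-maximal effect; 0% = DMSO wells and 100% = buffer wells lacking importin beta; nearly all actives have a fitted effect of over 15% in size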
#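 Inhibition scored from the CFP 486 nm/YFP 530 nm FRET ratio 45 min after adding 0.125 microM importin beta to 50 nM Rango biosensor preincubated 5 min with compound (room temperature, PBS with DTT, Tween-20, BSA). No-importin wells as positive control.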
# Rango release inh = prevents RanGTP from dissociating the Rango-importin beta complex; O95149+P62826; Biochemical FRET Rango-importin beta, RanGTP-induced dissociation; Potency, µM (highest dose often 46.1 µM), for inactives: at the highest dose activity change, negative = inhibition; hit rate 0.071% among 340,000; AID 540253; active means falling FRET ratio curve, often poorly fitted, with flat reads before Ran was added; inconclusive means other falling curves, or compound fluorescence or quenching; inactive means flat or rising ratio curve;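 note: potency is the fitted concentration of half-maximal effect; % of control where 0% means no effect; nearly all actives have a fitted effect of over 45% in size; -100% = wells without RanGTP and RCC1; the record marks most hits as doubtful in a second field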
#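 Compounds preincubate 5 min with complex of recombinant Rango and importin beta in PBS with 1 mM DTT. Ran (0.6 uM) loaded with 2 mM GTP plus 0.2 uM RCC1 starts dissociation; FRET is recorded 45 min later.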
# An asterisk follows results filed as active; ? = inconclusive; . = not tested or not shown; & = joins results of further samples. Only part of the results is shown, so the mix of outcomes need not match the whole.
# Sample of the layout:
SMILES,GLA inh pH 4.5,miR-21 FLuc,Rango complex inh,Rango release inh
CC(C)(C)c1ccc(C(CC(=O)O)NC(=O)Cc2ccc(Cl)cc2)cc1 (stereo not given),.,-13.6%,-1.3%,-1.4%
Cc1cc(C)cc(OCC(=O)N(C)CC(=O)Nc2ccc(Cl)c(C(F)(F)F)c2)c1,.,.,3.1%,11.0%

# Main list, from the first entry:
SMILES,GLA inh pH 4.5,miR-21 FLuc,Rango complex inh,Rango release inh
CC(C)(C)c1ccc(C(CC(=O)O)NC(=O)Cc2ccc(Cl)cc2)cc1 (stereo not given),.,-13.6%,-1.3%,-1.4%
Cc1cc(C)cc(OCC(=O)N(C)CC(=O)Nc2ccc(Cl)c(C(F)(F)F)c2)c1,.,.,3.1%,11.0%
CCOc1ccc(CNC(=O)CCn2c(=O)oc3ccccc32)cc1,-0.6,-2.7%,2.1%,1.5%
CCOc1c2ccc(C(=O)NCc3ccc(C)cc3)cc2nn1CCOC,7.2,-4.2%,-2.5%,-0.3%
CCC(=O)Nc1ccc2c(c1)nc(CCN1CCN(c3ccccn3)CC1)n2C,.,0.1%,2.4%,-19.8%
Fc1ccc(OCCOCCNCC2CCCO2)cc1 (stereo not given),4.7,-11.2%,2.1%,-9.1%
Cn1c(-c2cccc([N+](=O)[O-])c2)cnc1NCc1cccc(F)c1,.,0.4%,0.9%,2.4%
C=CCn1c(SCCN2CCOCC2)nc2c1c(=O)[nH]c(=O)n2C,2.1,-10.8%,1.3%,-4.2%
CC(C)C(=O)Nc1ccc(-c2nc3ncccc3o2)cc1,.,-14.1%,-2.0%,14.1%
O=C(Nc1ccccc1F)N(Cc1ccc(F)cc1)Cc1nc2ccccc2c(=O)[nH]1,0.3,0.6%,-1.7%,1.5%
O=S(=O)(NC1CC1)c1ccc(S(=O)(=O)N2CCCc3ccccc32)cc1,-5.8,13.9%,-8.3%,4.2%
CCCC/S(C)=N/S(=O)(=O)c1ccc(C)cc1 (stereo not given),-2.9,-0.3%,?,13.0%
CS(=O)(=O)Nc1ccc(C(=O)NC2CC3CCC2C3)cc1 (stereo not given),2.3,-13.7%,4.7%,16.0%
Cc1ccccc1CN(c1ccc(C(=O)Nc2cccnc2)cc1)S(C)(=O)=O,-5.7,6.6%,-1.3%,16.1%
Cc1c(CN(C)C)c2c(n1Cc1ccccc1)C(=O)c1ccccc1-2,-17.9,8.4%,-5.0%,2.0%
CC(Sc1nnc2ccccn12)C(=O)Nc1ccc2c(c1)OCCO2 (stereo not given),4.0,-32.2%,-1.1%,5.0%
CCCCn1c(N)c(N(C)C(=O)C2CCCC2)c(=O)[nH]c1=O,.,.,-0.8%,-0.9%
Cc1cccc(-n2ncc(C#N)c2N)c1,-1.1,-3.5%,-2.1%,25.7%
COCCN1CCC(CNCc2cn(-c3cc(C)ccc3C)nc2-c2ccccc2)C1 (stereo not given),5.0,-17.1%,-2.0%,-11.9%
CC(Sc1nnc(C2CC2)n1C1CC1)C(=O)Nc1cccc(S(=O)(=O)N(C)C)c1 (stereo not given),.,.,-3.0%,-6.7%
O=C(Nc1cccc(S(=O)(=O)NCc2ccco2)c1)c1cc(-c2ccc(F)cc2)nc2ccccc12,-5.2,?,-1.7%,1.2%
COc1ccc(Nc2nc(N)nc(CSC(=S)N3CCN(c4ccccc4)CC3)n2)cc1,-1.5,-1.9%,?,-8.8%
CC(=O)c1ccccc1NC(=O)c1cc(S(=O)(=O)N2CCOCC2)ccc1N1CCCC1,.,.,-0.4%,3.3%
Cc1cc(C(=O)OCCO)c(C#N)c(N)n1,7.5,-7.8%,0.2%,-13.9%
COc1cccc(NC(=O)c2ccc(S(=O)(=O)N3CCCCC3)cc2)c1,-17.5,1.9%,4.5%,-4.7%
O=C(NCc1ccccn1)c1ccccc1OCc1ccc(Cl)cc1Cl,.,.,0.2%,12.6%
CC(=O)NC1C(=O)N(CC(C)C)c2ccccc21 (stereo not given),2.4,-1.8%,-1.7%,-6.3%
Cc1cccc(Nc2nnc(SCC(=O)NC3CCCc4ccccc43)s2)c1C (stereo not given),2.5,10.1%,-5.5%,9.2%
CCC1CCCCN1C(=O)COc1ccc2c3c(c(=O)oc2c1)CCC3 (stereo not given),.,.,-3.0%,-0.6%
O=C(COc1ccc(Br)cc1)NCCN1CCCC1,.,-1.1%,-3.2%,-14.2%
CCOc1ccccc1C(=O)OCC(=O)Nc1cccc(S(=O)(=O)N2CCCC2)c1,.,.,-1.2%,-8.9%
CC(C(=O)NCC1CCCCC1)N1CCN(S(=O)(=O)c2cccs2)CC1 (stereo not given),.,.,0.9%,15.5%
CC(=N/O)/C(=N\O)c1ccc(C)o1,-9.0,-1.8%,5.1%,5.6%
COc1ccc(Cl)cc1N(C(=O)c1ccco1)C(C(=O)NC1CCCC1)c1cccnc1 (stereo not given),.,-0.2%,0.1%,9.2%
CN(C)/C=C/C(=O)c1ccc(Br)cc1,3.7,-22.9%,1.5%,-24.8%
CC(C)c1ccc(CNc2ncc(Br)cn2)cc1,.,-41.5%,1.0%,-8.5%
O=c1[nH]c2ccc(NCc3ccc(F)cc3)cc2[nH]1,.,-19.8%,-4.0%,-8.8%
Cc1nnc(N2C(=O)C(=O)/C(=C(\O)c3ccc4c(c3)CC(C)O4)C2c2ccccc2)s1 (stereo not given),.,-19.8%,?,?
COc1ccc(N2CCN(C(=O)CNS(=O)(=O)c3ccc(Br)s3)CC2)cc1,.,0.1%&-0.3%,3.4%,-1.3%
O=C(Cc1ccc(Cl)cc1)Nc1ccc(CN2CCCCC2)cc1,-7.6,-15.0%,-0.7%,5.4%

# Just Rango complex inh, GLA inh pH 4.5 and miR-21 FLuc, for some of the entries so far:
Structure | Rango complex inh | GLA inh pH 4.5 | miR-21 FLuc
CC(=N/O)/C(=N\O)c1ccc(C)o1 | 5.1% | -9.0 | -1.8%
COc1ccc(Cl)cc1N(C(=O)c1ccco1)C(C(=O)NC1CCCC1)c1cccnc1 (stereo not given) | 0.1% | . | -0.2%

# More records follow.
SMILES,GLA inh pH 4.5,miR-21 FLuc,Rango complex inh,Rango release inh
COc1cccc(C(=O)Nc2cc(=O)n(C)c(=O)n2C)c1,1.8,-1.5%,-1.9%,12.5%
O=[N+]([O-])c1cccc(-c2nn(-c3ccccc3)cc2CO)c1,.,-26.0%,-5.0%,-0.4%
CCCCn1c(N)c(N(CCC(C)C)C(=O)C2CC(=O)N(Cc3ccc(C)cc3)C2)c(=O)[nH]c1=O (stereo not given),.,.,1.2%,6.3%
COc1ccc(NC(=O)CSc2nnc(NC(C)=O)s2)c([N+](=O)[O-])c1,7.0,-2.3%,-2.3%,2.6%
CN(Cc1c(C(=O)N/N=C/c2ccccc2F)nnn1-c1nonc1N)c1ccccc1,.,-5.9%,3.1%,-1.3%
Cc1ccccc1OCCC(=O)N(Cc1ccccc1)c1c(N)n(Cc2ccccc2)c(=O)[nH]c1=O,.,6.7%,-0.3%,-9.1%
Cc1cc(C)nc(-n2nc(C)cc2NC(=O)CNC(C)c2ccccc2)n1 (stereo not given),4.5,-2.7%,0.7%,-0.3%
CC(C)Cn1[nH]c2c3c(ccc2c1=O)C(=O)c1ccccc1C3=O,-2.0,1.5%,0.2%,-6.6%
CCN(CC(=O)Nc1c(F)cccc1F)C(=O)Cn1c(=O)cnc2ccccc21,.,.,1.3%,-13.9%
COc1ccc(NC(=O)c2cc(S(=O)(=O)N3CCCCC3)c[nH]2)cc1Cl,.,1.0%&4.1%,-2.4%,4.3%
CCC(CC)c1nnc(NC(=O)c2cccnc2SC)s1,9.0,-8.4%,-1.8%,-7.2%
Cc1noc(C)c1C(=O)OCC(=O)Nc1cccc(S(=O)(=O)N(C)C)c1,-1.7,-14.6%,0.0%,-6.1%
CCOc1ccc(C(=O)Nc2ccc(N3CCN(C(C)=O)CC3)cc2)cc1[N+](=O)[O-],.,1.2%,-4.7%,-2.8%
COc1ccc(OC)c(C(=O)CN2CCN(S(=O)(=O)c3ccc(Br)cc3)CC2)c1,-12.7,-3.9%,0.0%,-4.3%
Cc1c(OC(C)C(=O)NCCCn2ccnc2)ccc2c3c(c(=O)oc12)CCC3 (stereo not given),.,-2.8%,-3.5%,-12.9%
Cn1c2ccc(F)cc2c2ncn(CCN3CCOCC3)c(=O)c21,-0.3,-18.0%,-0.4%,12.0%
O=C(Cn1cnc2cc([N+](=O)[O-])ccc2c1=O)Nc1ccccc1Cl,-6.6,2.7%,-1.8%,11.3%
COCCNC(=O)CN(C(=O)CCC(=O)Nc1ccccn1)c1ccc(C)cc1,.,3.7%,-4.2%,7.4%
CCN1CCN(C(c2cccs2)C(C)NS(=O)(=O)c2ccc(C)cc2)CC1 (stereo not given),2.0,-3.8%,-0.7%,-14.4%
Cc1oncc1C(=O)NC1CCCCC1,1.1,-2.9%,-5.6%,-2.5%
CCCn1ncc(CN2CCC(CO)(Cc3ccc(OC)cc3)CC2)c1C,4.6,-3.0%,0.2%,2.5%
O=C(CC1SC(=O)N(Cc2cccc3ccccc23)C1=O)Nc1nccs1 (stereo not given),6.4,2.2%,-0.4%,-17.9%
CC(=O)N1CCN(CC(O)Cn2c3ccccc3c3ccccc32)CC1 (stereo not given),.,-5.4%,0.6%,4.3%
Cc1ccc(S(=O)(=O)Nc2ccc(Br)cc2C(NCC(=O)O)c2ccccc2)cc1 (stereo not given),10.6,19.2%,0.4%,12.1%
C[C@]12CCC(=O)C=C1CC[C@@H]1[C@@H]2[C@@H](O)C[C@]2(C=O)[C@@H](C(=O)CO)CC[C@@H]12,.,.,?,9.6%
O=C(Nc1ccccc1)C1C2CCC3C(CCC21)C3(Cl)Cl (stereo not given),4.0,-3.6%,-1.1%,10.5%
Fc1ccccc1COc1ccc(Br)cc1CNCC1CCCO1 (stereo not given),-1.5,0.1%,2.7%,14.1%
Cc1cc(Nc2ccc(N(C)C)cc2)n2ncnc2n1,.,-7.1%,1.9%,2.3%
CCCOc1ccc(-c2c(C(=O)N/N=C/C3CC=CCC3)nnn2-c2nonc2N)cc1 (stereo not given),.,-2.8%,1.6%,5.6%
Cc1c(C(=O)NCc2ccccn2)oc2ccc(S(=O)(=O)N3CCOCC3)cc12,6.6,-2.2%,2.1%,5.2%
Fc1ccc(C(CCCn2nnc(-c3cccnc3)n2)c2ccc(F)cc2)cc1,-2.1,26.1%,-1.1%,1.3%
COc1ccc(/C=N/n2c(-c3ccc(C)cc3)n[nH]c2=S)cc1OC,0.9,-30.6%,3.5%,-13.4%
CN(C)S(=O)(=O)c1ccc(C(=O)NCCS(=O)(=O)N2CCN(c3ccc(F)cc3)CC2)cc1,.,4.3%,3.1%,21.1%
O=[N+]([O-])c1cc(S(=O)(=O)Nc2ccccc2)ccc1-n1nnc2ccccc21,-3.5,-5.5%,2.6%,1.8%
COc1ccc(/C=N/NC(=O)CCn2nc(C)cc2C)cc1,-9.6,0.0%,5.6%,-5.7%
CN(c1ccc(C(=O)NCCSCc2ccc(Cl)cc2)cc1)S(=O)(=O)c1ccccc1,8.9,4.3%,-1.8%,-7.7%
O=C(CNC(=O)c1ccc(Br)cc1)OCc1cc([N+](=O)[O-])cc2c1OCOC2,1.5,-0.8%,-0.2%,-0.7%
COc1ccc(CNC(=O)C(C)N(Cc2ccco2)C(=O)c2snc(C(N)=O)c2N)cc1 (stereo not given),2.0,-8.5%,-2.1%,0.2%
CCOC(=O)N1CCN(C(=O)c2cc(COc3cccc(C(F)(F)F)c3)on2)CC1,.,-53.5%,2.0%,41.6%
O=C(CSc1nccc(=O)[nH]1)Nc1cccc(S(=O)(=O)N2CCOCC2)c1,-1.4,0.7%,1.3%,-2.6%
CC(C)(C)NC(=O)C1Cc2ccccc2CN1 (stereo not given),-2.4,-3.9%,0.2%,13.8%
COC(=O)CN1C(=O)[C@@H]2[C@H](C1=O)[C@@H]1CC(C(=O)OC)=C[C@@H](C(=O)OC)[C@@H]3C1=C(C(=O)[C@@]3(C)NC(=O)c1ccccc1)[C@@H]2C,.,.,?,-16.3%
c1ccc(-c2nnc3sc(Cc4cccs4)nn23)cc1,0.8,-45.6%,-2.3%,18.3%
CCCNC(=O)c1nnsc1Sc1ccc(Cl)cc1,1.5,-27.3%,3.5%,24.5%
CCOC(=O)c1c(N)sc(C(=O)Nc2ccccc2)c1C,-23.3,-17.2%,-0.3%,2.8%

# Screens deposited in PubChem by National Center for Advancing Translational Sciences (NCATS).
